miR-21 reporter – raises the signal of a miR-21 reporter; HeLa miR-21 FLuc reporter, luciferase, 48 h; Potency, µM (series often up to 38.3 µM), for inactives: top-dose reporter change, positive = more light; 340,000 tested, under 10 active; AID 2288; active = well fitted rising curve with a large enough effect; inconclusive = small, poorly fitted or top-dose-only effect; inactive = no such curve, though single readings can be large or run the other way;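 further: % of control where 0% means no effect; miR-21 action dims this reporter so a rising signal means less miR-21 action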
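HeLa miR-21-FLuc reporter line, endogenous miR-21; 2000 cells/well in DMEM/10% FBS; compound titration up to ~40uM final, 48 h, 37 degree Celsius; luciferase detection reagent, 15 min lysis, CCD luminescence.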
Rango dissoc inh – inhibition of RanGTP-driven Rango-importin beta dissociation; O95149+P62826; Biochemical FRET Rango-importin beta, RanGTP-induced dissociation; Potency, µM (doses to about 46.1 µM), for the others: at the highest dose activity change, negative = inhibition; hit rate 0.071% among 340,000; AID 540253; active means falling FRET ratio curve, often poorly fitted, with flat reads before Ran was added; inconclusive means other falling curves, or compound fluorescence or quenching; inactive means flat or rising ratio curve;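 further: potency means the concentration at half of the fitted maximal effect; % of control where 0% means no effect; nearly all actives have a fitted effect of over 45% in size; -100% = wells without RanGTP and RCC1; the record marks most hits as doubtful in a second field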
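Compounds preincubate 5 min with complex of recombinant Rango and importin beta in PBS with 1 mM DTT. Ran (0.6 uM) loaded with 2 mM GTP plus 0.2 uM RCC1 starts dissociation; FRET is recorded 45 min later.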
Rango complex inh – prevents formation of the Rango-importin beta complex. Q14974. Rango CFP/YFP FRET sensor + importin beta, 45 min. Potency, µM (series often up to 92.2 µM), inactives show top-dose inhibition of complex formation. hit rate 0.031% among 340,000; active = rising FRET ratio curve, often small or poorly fitted; inconclusive = mostly compound fluorescence or quenching in the first reads; inactive = flat curves in all reads;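 further: potency means the concentration at half of the fitted maximal effect; 0% = DMSO wells and 100% = buffer wells lacking importin beta; nearly all actives have a fitted effect of over 15% in size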
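Inhibition scored from the CFP 486 nm/YFP 530 nm FRET ratio 45 min after adding 0.125 microM importin beta to 50 nM Rango biosensor preincubated 5 min with compound (room temperature, PBS with DTT, Tween-20, BSA). No-importin wells as positive control.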
GLA inh pH 4.5 – inhibitors of human alpha-galactosidase A at pH 4.5 | purified enzyme, 4-MU-alpha-Gal fluorescence, pH 4.5 | activity change, negative = inhibition, % at 105 µM | 230,000 tested, under 10 active | AID 1467; inconclusive = small, poorly fitted or top-dose-only inhibition, or a rising curve; inactive = flat fitted curve, though single readings scatter; no compound was filed as active;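 further: 0% = full activity with enzyme and -100% = basal without enzyme; dose as in the result columns while the protocol names 77 µM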
Target sequence (P06280 whole entry, looked up): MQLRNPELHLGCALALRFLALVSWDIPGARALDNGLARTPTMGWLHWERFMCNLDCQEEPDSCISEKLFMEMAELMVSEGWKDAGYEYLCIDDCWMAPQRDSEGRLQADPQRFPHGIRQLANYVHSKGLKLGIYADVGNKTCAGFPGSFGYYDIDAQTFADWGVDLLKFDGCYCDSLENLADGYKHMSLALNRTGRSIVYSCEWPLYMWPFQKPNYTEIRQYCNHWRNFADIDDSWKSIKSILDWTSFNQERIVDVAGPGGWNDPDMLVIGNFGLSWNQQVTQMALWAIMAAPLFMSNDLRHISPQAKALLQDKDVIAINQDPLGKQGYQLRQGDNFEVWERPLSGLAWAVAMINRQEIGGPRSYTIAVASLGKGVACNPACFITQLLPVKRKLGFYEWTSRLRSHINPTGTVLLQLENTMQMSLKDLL
* = called active by the depositor; ? = inconclusive; · = not tested or not shown; & = joins results of further samples.

mol	miR-21 reporter	Rango dissoc inh	Rango complex inh	GLA inh pH 4.5
NS(=O)(=O)c1ccc(N=Cc2c(O)c3ccccc3oc2=O)cc1	-8%	15%	0.7%	1
CCc1ccc(NS(=O)(=O)c2ccc(OC)c(C)c2)cc1	1%	1%	3.7%	4
N#CC1(NC(=O)CN2C(=O)c3ccccc3C2=O)CCCCC1	·	-10%	0.2%	·
CS/C(=N\S(=O)(=O)c1ccccc1)c1ccccc1	-1%	28%	5.1%	-2
Cc1ccc2oc(=O)c(/C=C(\O)c3cccs3)nc2c1	-88%	?	?	-2
CC(=O)N(C)/C=C1\Sc2ccccc2C1=O	-16%	?	?	7
COC(=O)c1ccc(Cn2cc(C(F)(F)F)cc([N+](=O)[O-])c2=O)cc1	4%	18%	0.2%	9
COc1ccc(-n2c(Cc3cccn3C)nnc2SCC(=O)NCC2CCCO2)cc1 (stereo unspecified)	0%	10%	-1.5%	7
c1ccc(CNc2nc3ccccc3n3cnnc23)cc1	-17%	32%	-2.8%	0
Cc1cc(CN2CCC(n3nccc3NC(=O)c3ccccc3C)CC2)n[nH]1	-5%	?	0.0%	·
Cc1ccc2nc(/C(C#N)=C/c3ccccc3C(=O)O)[nH]c2c1	-20%	?	?	·
COCC1CCCN(Cc2cn[nH]c2-c2cc3ccccc3o2)C1 (stereo unspecified)	-11%	1%	1.9%	-1
COc1ccc(C(=O)Nc2ccc(NC(=O)C(C)C)nc2)cc1	-7%	2%	-3.0%	0
Nc1nc(-c2ccc(Oc3ccccc3)cc2)c(CC(=O)O)s1	-9%	-4%	7.9%	·
CCN(CC)S(=O)(=O)c1ccc(C(=O)NCC(=O)NC2CC2)cc1	·	2%	2.6%	·
CC1(c2ccccn2)Nc2ccccc2-c2nc3ccccc3n21 (stereo unspecified)	-25%	-12%	0.3%	?
COc1ccc(C=C(c2nc3ccccc3s2)c2nc3ccccc3s2)cc1O	-48%	-14%	?	-12
COc1ccccc1-c1noc2ncnc(Nc3ccc4c(c3)OCO4)c12	-4%	10%	1.1%	·
C/C(=N/NC(=O)c1ccc(C)s1)c1ccncc1	-62%	17%	10%	·
CC(NC(=O)CSCc1ccccc1Br)c1ccccc1 (stereo unspecified)	-20%	-9%	3.3%	-3
CN(CCO)c1ccc(-c2n[nH]c(=O)c3ccccc23)cc1[N+](=O)[O-]	0%	2%	3.5%	·
O=C(OC1CCCCC1=O)c1cc(=O)c2ccccc2o1 (stereo unspecified)	-1%	7%	0.5%	1
CN1CCN(c2ccccc2NC(=O)C(Cc2ccccc2)n2cccc2)CC1 (stereo unspecified)	-2%	-3%	-3.5%	0
COc1ccc(N(CC(=O)Nc2ccc(S(=O)(=O)N3CCOCC3)cc2)S(=O)(=O)c2ccc(F)cc2)cc1	13%	-4%	-3.0%	-13

Complete entries as entered above. Values in the order: miR-21 reporter | Rango dissoc inh | Rango complex inh | GLA inh pH 4.5
CN1CCN(c2ccccc2NC(=O)C(Cc2ccccc2)n2cccc2)CC1 (stereo unspecified) across the screens: -2% | -3% | -3.5% | 0
COc1ccc(N(CC(=O)Nc2ccc(S(=O)(=O)N3CCOCC3)cc2)S(=O)(=O)c2ccc(F)cc2)cc1 across the screens: 13% | -4% | -3.0% | -13
C/C(=N/NC(=O)c1ccc(C)s1)c1ccncc1 across the screens: -62% | 17% | 10% | ·

(listing goes on)
mol	miR-21 reporter	Rango dissoc inh	Rango complex inh	GLA inh pH 4.5
CC(=O)C1=C(O)CC(c2ccccc2)CC1=NCCc1c(C)[nH]c2ccc(C)cc12 (stereo unspecified)	-13%	34%	1.1%	8
Cc1ccc(NC(C#N)c2ccccc2OCc2ccccc2)cc1 (stereo unspecified)	-6%	4%	-0.7%	6
CCCN(CC(=O)Nc1cc(Cl)ccc1Cl)C(=O)/C=C/c1ccco1	-20%	1%	-1.9%	4
CN(C)c1nc(C(N)=O)nc(N2CCOCC2)n1	-3%	1%	-1.4%	2
CC1CCCCN1C(=O)Cn1c(=O)oc2cc(S(=O)(=O)N3CCCC3)ccc21 (stereo unspecified)	5%	-6%	-4.6%	·
O=C(NCCN1CCOCC1)c1ccc(CS(=O)(=O)Cc2ccccc2F)o1	-5%	-10%	7.7%	0
CN1CCN(C2=C(Cl)C(=O)N(Cc3ccccc3)C2=O)CC1	7%	-25%	2.8%	-4
CC(=O)NC(=S)NNC(=O)COc1ccc(Br)cc1	-17%	13%	-2.3%	2
COc1ccccc1OCCNC(=O)c1ccc(Br)cc1	-63%	1%	0.7%	·
COc1ccc(/C=C/c2nc(S(=O)(=O)c3ccccc3)c(NCCCN(C)C)o2)cc1OC	-12%	-7%	-1.2%	·
CCOc1ccccc1NC(=O)COc1coc(CN2CCCc3ccccc32)cc1=O	·	-2%	0.0%	·
O=C(Nc1cccs1)Nc1ccccc1Cl	-13%	-14%	1.2%	3
O=C(Nc1nc(-c2ccc(F)c(F)c2)cs1)c1cnccn1	0%	12%	-2.2%	-2
O=c1oc2ccc3ccccc3c2c2c1SC(C(F)(F)F)C2 (stereo unspecified)	0%	-18%	-0.3%	22
Cc1ccccc1NC(=O)CSc1nc2scc(C)c2c(=O)[nH]1	6%	-1%	0.0%	·
CCCn1c(SCC(=O)N2CCN(C(C)=O)CC2)nc2sc3c(c2c1=O)CCC3	-3%	7%	0.5%	·
CCOc1ccc(OCc2ccc(C(=O)Nc3cccnc3)o2)cc1	-13%	-5%	2.9%	7
O=C(c1ccc2c(=O)n(C3CCCC3)c(=S)[nH]c2c1)N1CCCCCC1	25%	-3%	?	5
CN(C(=O)C1CCC(=O)N(C2CC2)C1)C1CCCCC1 (stereo unspecified)	-6%	0%	-1.6%	·
COc1ccc(OC)c(/C=N/NC(=O)CC(=O)NCc2ccccc2)c1	4%	38%	-0.2%	15
CCOC(=O)C1(CC2CCCCO2)CCN(Cc2cc(F)ccc2-n2cccn2)CC1 (stereo unspecified)	-39%	-4%	-0.5%	3
COc1cccc(-c2cc(N)nn2C(=O)Nc2ccc(Cl)cc2)c1	-11%	-8%	-2.4%	4
CCOc1ccc(-n2c(=S)sc3c(=O)n(-c4ccccc4)c(SC)nc32)cc1	-1%	4%	-3.2%	·
Cc1cc(C)n2ncc(C(=O)Nc3ccc(Cl)c(Cl)c3)c2n1	-8%	-7%	1.6%	-6
CCN(C(=O)CSc1nc(C)cc(=O)[nH]1)C1CCCCC1	·	8%	0.9%	·
Cc1ccc(S(=O)(=O)NCc2cn3c(C)csc3n2)cc1	-1%	-7%	0.6%	7
Cc1onc(-c2c(Cl)cccc2Cl)c1NC(=O)N(C)N	1%	6%	3.6%	1
O=C(NO)c1ccc(C(=O)N(C2CCCCC2)C2CCCCC2)cc1	18%	3%	-6.9%	4
O=C(COC(=O)c1ccncc1)NC(=O)C1CCCCC1	-2%	-12%	3.0%	6
Cc1ccc(NC(=O)n2ncc3c(C)cccc32)c(C)c1	-35%&3%	-14%	0.3%	·
CCOC(=O)COC(=O)c1ccc(Oc2cc(C)nc(SC)n2)cc1	-5%	1%	1.9%	0
COc1ccc(N(C=O)C(=S)SC)cc1	-3%	19%	6.8%	-5
O=c1[nH]c2cc3c(cc2cc1CN(CCc1ccccc1)C(=S)NCCCN1CCOCC1)OCCO3	·	-15%	-3.2%	·
OC1(c2ccc(Cl)cc2)CCN(Cc2cn[nH]c2-c2ccc(F)cc2)CC1	14%	8%	-0.6%	-4
COc1ccccc1CNC(=O)CN1c2cccc3cccc(c23)S1(=O)=O	·	21%	-0.8%	·
CN1CCN(c2ccc(NC(=O)c3ccc([N+](=O)[O-])o3)cc2Cl)CC1	-3%	-4%	4.6%	·
CCC1CCCCN1c1nc2c(C=O)c(C)nn2c2ccccc12 (stereo unspecified)	-18%	-2%	-1.9%	0
Nc1[nH]n(-c2ccccc2)c(=O)c1N=Nc1ccc2ncsc2c1	-22%	6%	3.0%	-2
O=C(Nc1sc2c(c1-c1nc3ccccc3[nH]1)CCCC2)C1CCCC1	1%	0%	0.4%	11
CCOc1ccccc1N(CC(=O)Nc1ccc(S(=O)(=O)N2CCOCC2)cc1)S(C)(=O)=O	4%	-9%	3.6%	·
CCN1C(=O)[C@H]2[C@@H](c3ccc(C)cc3)N3C(=O)N(c4ccc(C)cc4)C(=O)[C@@]3(Cc3ccc(Cl)cc3)[C@H]2C1=O	-5%	0%	0.0%	·
CCC(CC)NC(=O)Cc1ccccc1[N+](=O)[O-]	-4%	-1%	1.5%	-6
O=C(CCC1CCCN(C(=O)c2cncs2)C1)NCc1ccc(F)c(F)c1 (stereo unspecified)	-3%	1%	1.1%	9
CCCCCCN=C(C)c1ccccc1O	2%	0%	-1.2%	-3
CCc1ccc(C2CC(=O)N3CN(c4ccccc4)CSC3=C2C#N)cc1 (stereo unspecified)	-6%	-3%	-3.7%	-2
Nc1c2c(nc3cccc(Cl)c13)N(c1ccccc1)CC2	-3%	-14%	-0.5%	·
Clc1ncccc1-c1nnn(-c2ccccc2Br)n1	-58%	?	1.6%	-3
CCOC(=O)c1nn(-c2ccccc2F)c2nc(-c3ccco3)c(C#N)c(=O)n12	-6%	-17%	?	-9
CCOC(=O)c1ccc(NC(=O)C2(c3ccccc3)CCOCC2)cc1	-6%	0%	0.2%	-3
O=C(Cc1ccc(F)cc1)Oc1ccc(C(=S)N2CCCC2)cc1	-2%	13%	6.8%	-9
O=C(CSc1nnnn1-c1ccc(Cl)cc1)NC1CCS(=O)(=O)C1 (stereo unspecified)	·	-12%	0.9%	·
CCCCc1cc(=O)oc2c(C)c(OCC(=O)NCCN3CCOCC3)ccc12	-20%	-1%	1.5%	·
Cc1ccc(S(=O)(=O)N/N=C/c2ccc(OCC(=O)NC(C)C)cc2)cc1	·	-17%	0.6%	·
CC1CC(=O)Nc2ccccc2N1 (stereo unspecified)	·	1%	-0.2%	·
CCN(CC)c1ccc(N2C(=O)/C(=C/c3cccnc3)SC2=S)cc1	-1%	7%	-1.7%	-21
COc1ccc(/C=C/C(=O)NC(=S)NNC(=O)c2cc(OC)c(OC)c(OC)c2)cc1OC	-7%	0%	1.1%	-23

Following part:
mol	miR-21 reporter	Rango dissoc inh	Rango complex inh	GLA inh pH 4.5
Cc1ccc2nc3c(c(N)c2c1)CCN3c1ccccc1	-27%	-12%	2.8%	2
COc1ccc(-n2c(Cc3cccn3C)nnc2SCC(=O)NCc2ccc(F)cc2)cc1	-10%	0%	-0.4%	9
Cc1ccc(NC(=O)c2ccccc2)cc1OC(=O)c1ccccc1	-43%	19%	-4.4%	11
Oc1[nH]c(=S)sc1/C=C1\C(c2ccccc2)=Nc2ccccc21	-22%	?	?	-9
COc1ccc(C(C)C)cc1S(=O)(=O)NC1CCCC1	-1%	14%	0.3%	·
CC(C)N1CCN(Cc2cccs2)CC1CCO (stereo unspecified)	0%	9%	0.1%	4
CCSc1nc2sc3c(c2c(=O)n1C1CCCCC1)CCN(C)C3	1%	-4%	-0.4%	4
CCOC(=O)c1sc2cc([N+](=O)[O-])cc(SCCO)c2c1N	-10%	3%	?	-1
CCOP(=O)(O)c1ccccc1OCCCCCOc1ccccc1P(=O)(O)OCC	-3%	1%	2.2%	-4
COc1ccc(C(CNC(=O)c2nn(-c3ccccc3)c(=O)c3ccccc23)N2CCOCC2)cc1 (stereo unspecified)	·	4%	-0.8%	·
O=C(OCc1nc2ccccc2s1)C1CCN(S(=O)(=O)c2cccs2)CC1	-31%	3%	?	-14

This is a subset (hit frequency here may not be typical).
